High-throughput results as filed in PubChem BioAssay.
HNF4A DNA FP – change in binding of human HNF4 alpha to DNA | activity change, % at 10 µM | HNF4a-FITC DNA binding, fluorescence polarization, 1 h | AID 1224865 | P41235 | 360,000 tested, 0.3% active; in the data active = activity change above about 30%, passing the limit was not always enough;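 note: controls were the assay level and a saturating level of protein; the project sought stronger binding though the title names inhibitors; some compounds called inactive have numbers as strong as hits; positive values seem to mean higher polarization but the record does not say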
Target sequence (P41235 whole entry, looked up): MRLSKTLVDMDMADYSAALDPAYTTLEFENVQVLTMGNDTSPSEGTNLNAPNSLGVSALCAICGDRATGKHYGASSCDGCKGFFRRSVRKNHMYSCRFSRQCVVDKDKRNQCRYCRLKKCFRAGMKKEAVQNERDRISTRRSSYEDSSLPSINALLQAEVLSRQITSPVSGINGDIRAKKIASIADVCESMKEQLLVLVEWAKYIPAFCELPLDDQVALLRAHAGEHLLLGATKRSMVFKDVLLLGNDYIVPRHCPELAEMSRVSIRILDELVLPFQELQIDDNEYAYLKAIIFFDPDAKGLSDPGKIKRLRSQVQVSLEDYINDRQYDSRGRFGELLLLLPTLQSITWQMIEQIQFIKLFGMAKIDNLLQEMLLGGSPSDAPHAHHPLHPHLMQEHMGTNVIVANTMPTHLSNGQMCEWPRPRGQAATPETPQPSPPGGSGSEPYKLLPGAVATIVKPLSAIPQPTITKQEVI
FGF22 binding – FGF22 (human) thermal shift binding; 340,000 tested, 1.5% active; calls only at 9.99 µM; recombinant FGF22 thermal shift, SYPRO orange fluorescence; percent of sucrose octasulfate shift, DMSO zero;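 active = melting point raised past a set limit in the mean and every replicate; three in four hits are not shown here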
UCH37 inh – human UCH37 deubiquitinating enzyme inhibition. Q9Y5K5. inhibition, % (test concentration not listed). AID 588478. 330,000 tested, 0.33% active. purified proteasome/UCH37, Ub-AMC cleavage fluorescence;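 active = mean of two replicates above 20%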;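 note: 0% = compound-free wells with enzyme and 100% = wells lacking proteasome; stock transfer was 100 nL into about 20 µL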
Target sequence (Q9Y5K5 whole entry, looked up): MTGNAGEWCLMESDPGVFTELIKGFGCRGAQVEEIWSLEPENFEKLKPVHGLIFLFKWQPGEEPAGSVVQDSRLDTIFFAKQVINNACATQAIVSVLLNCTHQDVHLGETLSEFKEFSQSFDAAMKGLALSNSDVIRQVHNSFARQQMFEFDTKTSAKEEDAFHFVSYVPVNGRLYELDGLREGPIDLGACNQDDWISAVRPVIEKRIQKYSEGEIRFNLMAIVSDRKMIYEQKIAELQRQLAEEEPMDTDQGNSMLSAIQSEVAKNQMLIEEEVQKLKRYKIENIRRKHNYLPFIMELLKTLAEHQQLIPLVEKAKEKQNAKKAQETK
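Test system – human UCH37 enzyme supplied as purified proteasome complex · Incubation – 30 min preincubation with enzyme, 25 min cleavage at room temperature · Detection – AMC fluorescence from Ub-AMC cleavage, excitation 355 nm, emission 460 nm · Benchmarks – no-proteasome wells (full inhibition) and compound-free wells (no inhibition)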
Beta2AR agonist – human beta-2 adrenergic receptor agonism by FAP. P07550. 340,000 tested, 0.43% active. AID 504454. response, % (no concentration beside the values). Am2.2-beta2AR cells, FAP receptor internalization, flow cytometry; reference of the scale not given here;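 active = response above a set limit, near 3 SD of response in nonfluorescent compounds, cut at about 42% in these data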;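 note: stock transfer was 100 nL into about 11 µL; a reference agonist was the positive control; negative values mostly stem from fluorescent compounds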
ALR H2O2 inh – blocks human ALR sulfhydryl oxidase activity; purified ALR, DTT oxidation, H2O2 HRP-luminol luminescence; inhibition, % (no concentration beside the values); 290,000 tested, 3.8% active; AID 485317;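 active = mean and each replicate at 75% or more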;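 note: stock transfer was 7.5 nL into about 7.5 µL; 0% = neutral wells and 100% = wells with inactivated enzyme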
Target sequence (P55789 whole entry, looked up): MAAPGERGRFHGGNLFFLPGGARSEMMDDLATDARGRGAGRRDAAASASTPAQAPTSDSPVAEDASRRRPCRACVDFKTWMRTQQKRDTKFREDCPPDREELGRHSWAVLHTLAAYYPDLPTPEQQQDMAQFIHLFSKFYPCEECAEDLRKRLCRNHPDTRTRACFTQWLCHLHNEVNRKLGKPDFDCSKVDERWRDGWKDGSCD
E coli growth – blocks Escherichia coli growth. 330,000 tested, 0.21% active. AID 1053175. OD600 absorbance (concentration not given with the values). OD600, 23 h; stronger effect = lower value;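 active = OD600 absorbance below the run mean of sample wells minus 3.6 SD, in any replicate, cut at about 0.56 in these data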;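 note: stock transfer was 300 nL into about 60 µL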
Ecoli rRNA inh – inhibits bacterial ribosomal RNA function over humanized ribosomes | E. coli WT GFP vs humanized-ribosome RFP mutants, fluorescence, 24 h; stronger effect = lower value; DMSO median 0, no signal -100 | GFP signal change (wild-type ribosome), % (no concentration beside the values) | 350,000 tested, 1.6% active;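 active = significant combined selectivity score with lowered wild-type GFP, culture density cut under 30%, mutant RFP and density less affected; inactive = any of these conditions unmet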; note: one replicate is shown; some compounds called inactive have numbers as strong as hits
Ecoli rRNA inh OD600 – recorded beside Ecoli rRNA inh, whose call it bears; OD600 change, %; measured here: OD600 growth;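 optical density of the mix in the first replicate; 0 = DMSO median and -100 = no signal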
Ecoli rRNA inh RFP – also measured in Ecoli rRNA inh; calls as there; RFP signal change, %; measured here: RFP humanized mutant strains;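 first replicate; 0 = DMSO median and -100 = no signal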
* = called active by the depositor; i = inactive; . = no result given.

SMILES	HNF4A DNA FP	FGF22 binding	UCH37 inh	Beta2AR agonist	ALR H2O2 inh	E coli growth	Ecoli rRNA inh	Ecoli rRNA inh OD600	Ecoli rRNA inh RFP
O=C(NCc1cccc(F)c1)Nc1nnc([C@@H]2C[C@H](O)[C@@H](CO)O2)s1	2.8	i	.	.	.	.	6	12	1.4
COCC(=O)Nc1ccc(Br)cc1	-0.2	.	2.1	-12	-12	0.7	.	.	.
CC(C(=O)Nc1ccccc1C(=O)N1CCCC1)n1nnc2ccccc21 (stereo unspecified)	-0.6	.	1.1	6	-4	0.68	.	.	.
CN1C(=O)C(CC(=O)Nc2ccc(Cl)cc2)N(Cc2ccco2)C1=S (stereo unspecified)	4.6	i	5.7	7	-6	0.67	-2	-4	2.7
O=C(c1ccco1)N(Cc1ccc([N+](=O)[O-])cc1)c1ccc(Br)cc1	1.4	.	4.8	-6	-13	0.68	.	.	.
CCN(CC)CCNC(=O)c1ccc(NC(=O)c2ccc(C(=O)c3ccccc3)cc2)cc1	-1.6	i	0.0	10	-68	0.65	1	-3	-0.2
CCC(=O)N1CCc2cc(Br)cc(S(=O)(=O)N(C)c3ccc(OC)cc3)c21	-1.7	i	-0.3	101*	-7	0.73	-1	-3	1.7
CCN(CC)CCCNC(=O)c1cn(CC)c2ccc(S(=O)(=O)N3CCc4ccccc4C3)cc2c1=O	2.5	i	3.5	4	-3	0.63	6	-2	4.5
C/C(=N\NC(=O)C1CC1c1ccccc1)c1cccs1 (stereo unspecified)	-1.3	i	.	3	6	.	1	-2	-2.6
Cc1cc(C)c2oc(=O)cc(CN3CCC(C)CC3)c2c1	1.8	i	0.8	-2	.	0.66	7	6	1.6
CCc1ccccc1N1C(=O)[C@@H]2Cc3ccccc3CN2C1=O	4.3	i	2.9	-4	2	0.65	-15	-16	-2.0
OCC1(CC2CCCCO2)CCN(Cc2cccc(O)c2)CC1 (stereo unspecified)	6.2	i	-0.7	5	-1	0.69	5	14	7.2
COc1ccccc1N1CCN(C(=S)NC(=O)/C=C/c2ccc(F)cc2)CC1	-2.7	i	1.8	2	-6	0.64	-15	-9	2.9
N#Cc1c(NCCCO)nc(-c2ccccc2)c2c1CCCC2	-2.7	.	-66	-5	-9	0.71	.	.	.
COc1ccc(C2=NOC(Cn3nc(C(=O)NCc4cccs4)cc3-c3ccccc3)C2)cc1 (stereo unspecified)	-1.2	i	.	18	1	.	-10	-6	-3.3
Cc1c(C)c2ccc(OCC(=O)N3CCC[C@@H]3C(=O)O)c(C)c2oc1=O	-2.0	i	-105	8	7	0.7	5	5	1.5
CCOC(=O)c1[nH]c(C)c(C(=O)Nc2ccccc2F)c1C	2.8	.	0.8	0	-8	0.65	.	.	.
COc1ccc(-c2nc(C3CCCCC3)c3cc(OC)ccc3n2)cc1	0.1	i	2.9	0	3	0.67	-5	2	-10
COc1cccc(CN(C)Cc2nc(C3CC3)no2)c1	-0.6	i	1.3	-11	-16	0.66	4	-4	0.2
CN(CC(=O)Nc1ccc(N2CCOCC2)cc1)C(=O)c1ccc(CS(C)(=O)=O)cc1	4.4	i	4.4	2	23	0.68	23	11	0.2
O=S(=O)(NCCCCCNS(=O)(=O)c1c(F)cccc1F)c1ccc2c(c1)OCCO2	0.6	i	0.6	-4	-10	0.71	-15	-20	6.1
Cc1cccc(C)c1NC(=O)CNC(=O)c1ccc(COc2ccccc2)o1	4.7	i	5.3	-7	.	0.7	.	.	.
CCOC(=O)/C(=N\Nc1cccc(Cl)c1)Sc1nnc(-c2ccc(OC)cc2)n1C	-1.5	.	.	-4	-1	.	.	.	.
COCc1ccc(C(=O)N2CCCC(C(=O)c3cccc(C(F)(F)F)c3)C2)o1 (stereo unspecified)	2.3	i	0.7	-3	5	0.67	-10	-9	-6.4
COc1ccc(NC(=O)CSC2CCCCC2)cc1	3.0	.	-1.2	9	2	0.74	.	.	.

Entries of single compounds, quoted from the list. Order of values: HNF4A DNA FP | FGF22 binding | UCH37 inh | Beta2AR agonist | ALR H2O2 inh | E coli growth | Ecoli rRNA inh | Ecoli rRNA inh OD600 | Ecoli rRNA inh RFP
Entry for CCc1ccccc1N1C(=O)[C@@H]2Cc3ccccc3CN2C1=O → 4.3 | i | 2.9 | -4 | 2 | 0.65 | -15 | -16 | -2.0
Entry for Cc1cccc(C)c1NC(=O)CNC(=O)c1ccc(COc2ccccc2)o1 → 4.7 | i | 5.3 | -7 | . | 0.7 | . | . | .
Entry for Cc1c(C)c2ccc(OCC(=O)N3CCC[C@@H]3C(=O)O)c(C)c2oc1=O → -2.0 | i | -105 | 8 | 7 | 0.7 | 5 | 5 | 1.5
Entry for COc1ccc(NC(=O)CSC2CCCCC2)cc1 → 3.0 | . | -1.2 | 9 | 2 | 0.74 | . | . | .
Entry for COCC(=O)Nc1ccc(Br)cc1 → -0.2 | . | 2.1 | -12 | -12 | 0.7 | . | . | .

The list goes on:
SMILES	HNF4A DNA FP	FGF22 binding	UCH37 inh	Beta2AR agonist	ALR H2O2 inh	E coli growth	Ecoli rRNA inh	Ecoli rRNA inh OD600	Ecoli rRNA inh RFP
Fc1ccc(NC(=S)N2CCCC(c3ccccc3)=N2)cc1	4.0	i	5.0	-9	-2	0.62	-4	2	-0.2
CC(C)CCCN1C(N(C)C)=NC[C@@H]1C	-1.0	i	-0.9	6	.	.	3	19	19
CCOc1ccc(S(=O)(=O)N2CCC(C(=O)NCc3cccnc3)CC2)cc1Cl	1.5	i	3.2	-10	-4	0.66	-3	-5	0.2
CCOC(=O)C(c1nc2ccccc2[nH]1)n1c(-c2ccccn2)nc2ccccc21 (stereo unspecified)	3.4	i	.	.	.	.	3	10	5.5
O=C(NCCCCCCNC(=O)c1cncc(O)c1)c1cncc(O)c1	0.6	i	-6.2	-4	-4	0.68	12	4	-2.0
COC(=O)C1=C(C)N(C)C(=O)NC1c1c(OC)ccc2ccccc12 (stereo unspecified)	4.7	i	5.2	6	-6	0.7	0	4	-0.6
COc1ccc2[nH]cc(CCNC(=O)CC[C@H]3O[C@@H](n4cc(C)c(=O)[nH]c4=O)C[C@@H]3O)c2c1	0.1	.	2.0	-2	.	0.71	10	22	-0.4
Cc1ccc(S(=O)(=O)N2CCN(S(=O)(=O)N(C)C)CC2)c(C)c1	-0.1	.	-0.2	-16	-1	0.68	.	.	.
Cc1ccc(S(=O)(=O)Nc2nc(C)c(C(=O)NNS(=O)(=O)c3cc(C)ccc3C)s2)cc1	0.5	.	2.3	3	14	0.62	-3	0	0.4
CCOc1ccc(NC(=O)CCN2CCN(S(=O)(=O)c3ccc(F)cc3)CC2)cc1	0.6	i	1.4	-6	24	0.65	1	-3	1.5
O=C1c2ccccc2C(Nc2ccc(S(=O)(=O)N3CCCCCC3)cc2)N1c1ccccn1 (stereo unspecified)	4.0	i	1.9	5	.	0.79	0	2	3.6
CCn1cc(C(=O)O)c(=O)c2cc(F)c(N3CCN(S(=O)(=O)c4ccc(NC(C)=O)cc4)CC3)cc21	-1.8	i	-218	56*	-1	0.06*	-55	-80	-29
CCCN1CCN(CCCNC(=O)Cn2cc3c(n2)CCCC3)CC1	4.8	i	1.7	-7	-8	0.74	6	12	1.7
Cc1nn(CCCC(=O)NCc2ccco2)c(=O)c2nn(-c3ccccc3)c(C)c12	1.9	i	2.2	-3	-5	0.69	4	4	-0.6
COCCNC(=O)C1CCC(=O)N1S(=O)(=O)c1ccc(C)cc1 (stereo unspecified)	3.9	i	1.8	4	-3	0.68	12	14	0.0
C=CCn1c(C)cc(C(=O)COC(=O)C2CC(=O)N(Cc3ccccc3)C2)c1C (stereo unspecified)	0.7	.	1.7	0	-12	0.72	.	.	.
CCCn1c(=N)n(CC(O)COc2cccc(C)c2)c2ccccc21 (stereo unspecified)	4.2	.	6.4	2	-37	0.67	.	.	.
O=C(O)CCS(=O)(=O)c1cccc2cccnc12	-2.4	.	-0.8	-3	0	0.66	.	.	.
CC1=NN(C(=O)c2csc(C(C)C)c2)C(O)(C(F)(F)F)C1 (stereo unspecified)	5.0	i	-2.0	-8	-4	0.7	12	11	1.3
Cc1cccc2cc(C3CC(c4ccco4)=NN3S(C)(=O)=O)c(Cl)nc12 (stereo unspecified)	3.9	i	2.0	4	0	0.68	-8	-10	-1.8
CCc1cc2c3c([nH]c2cc1S(=O)(=O)N1CCC2(CC1)OCCO2)CCCC3=O	2.2	i	1.3	0	-2	0.64	-26*	-20*	1.6*
O=C(OCc1nnc(-c2ccccc2)o1)c1cc([N+](=O)[O-])ccc1Cl	1.6	i	0.1	4	66	0.69	2	-12	-7.6
CCCN1CCN(CCCNC(=O)C(CC)n2nc(C)c3sc4ccccc4c3c2=O)CC1 (stereo unspecified)	2.8	i	-1.8	3	-4	0.7	-1	1	-0.1
CCc1ccc(N(CC(=O)NC2CCCCC2)C(=O)CCC(=O)Nc2ccccn2)cc1	1.3	i	2.1	7	-1	0.7	4	3	-6.6
O=C(N/N=C/c1cc([N+](=O)[O-])cc([N+](=O)[O-])c1O)/C(=C\c1cccs1)NC(=O)c1ccccc1	0.2	i	.	7	-1	.	-14	-7	-1.0
(next part)
SMILES	HNF4A DNA FP	FGF22 binding	UCH37 inh	Beta2AR agonist	ALR H2O2 inh	E coli growth	Ecoli rRNA inh	Ecoli rRNA inh OD600	Ecoli rRNA inh RFP
O=C(c1ccc(NC(=S)NCc2ccco2)cc1)N1CCOCC1	-0.5	i	2.6	-4	-19	0.67	20	19	3.8
CCCc1c(Cc2cccc(F)c2)ncn1Cc1cccc(-c2ccccc2)c1	-6.5	i	.	.	.	.	-21	-44	26
Cc1n[nH]c(C)c1Cc1c(F)cccc1Cl	4.1	i	3.7	-4	.	0.63	-51	-41	-15
O=C(NCc1ccccc1Cl)C1CCCN(S(=O)(=O)c2cccc3nonc23)C1 (stereo unspecified)	0.3	i	1.5	-7	-19	0.71	10	18	3.9
COCCCn1c(SCC(=O)Nc2nnc(C)s2)nnc1-c1ccoc1C	4.2	.	6.7	4	-1	0.75	13	10	0.0
COc1cccc(OCc2cc(C(=O)N3CCN(C4CCCCC4)C(=O)C3)no2)c1	-2.7	i	3.8	-11	1	0.67	-4	-6	7.1
COC(C[C@@H]1O[C@H]1[C@@H](O)[C@@H](C)OCc1ccccc1)OC	4.5	i	0.4	4	.	.	11	12	-3.7
CN(CC(=O)NCc1ccncc1)S(=O)(=O)c1ccccc1	2.0	i	3.0	-5	0	0.68	19	7	1.1
Cc1nc(Cl)c(S(N)(=O)=O)c(C)c1Cl	5.1	i	3.9	-5	3	0.7	14	7	0.1
O=C(Sc1ccc(Cl)cc1)c1ccccn1	0.5	i	4.9	9	98*	0.63	17	4	0.5
CN(C)/C=N/NC(=O)c1ccccc1Cl	-2.0	i	.	-3	-5	.	5	6	-0.5
O=C(Oc1ccc(Br)cc1)C1CCN(C2=NS(=O)(=O)c3ccccc32)CC1	-2.0	i	3.6	0	.	0.68	5	8	-1.0
COCC1CCCN(C(=O)c2ccc3oc(CCCc4ccccc4)nc3c2)C1 (stereo unspecified)	2.4	i	4.2	-16	1	0.69	-4	-2	2.0
Cc1ccc(NC(=O)c2cc(S(=O)(=O)N3CCOCC3)ccc2F)c(C)c1	3.7	.	-0.3	1	-4	0.72	.	.	.
C[C@H]1C=C(C(=O)N2CCOCC2)O[C@@H](OCc2ccc(CO)cc2)C1	-3.2	i	1.8	-5	-12	0.8	2	2	4.0
COc1ccc(NC(=O)Cn2nc(Cc3cccnc3)c3ccccc3c2=O)c(OC)c1	-3.6	i	4.4	-12	.	0.71	0	-4	-0.9
CCOc1cc(C2NC(=O)CCC2[N+](=O)[O-])cc(Br)c1OCC (stereo unspecified)	5.7	i	0.8	3	1	0.65	3	11	3.1

Not all compounds are listed; the hit share may differ from the screen's.
